Screens from PubChem.
Mtb hypoxia inh: PubChem AID 1159583; M. tuberculosis hypoxia-regulated fluorescent reporter, fluorescence; fluorescence inhibition, % (concentration not given with the values); 300,000 tested, 0.1% active;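 active = 35 to 45% if threefold the growth effect, above 45% if 1.5-fold the growth effect; inactive = the rest, general growth blockers included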;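 also: wells of about 50 µL received 100 nL stock; 0% = vehicle wells and 100% = reference inhibitor wells; whole bacteria with a GFP reporter of the hypoxia response; strong numbers were not always called active; many hits fall short of the cut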
BJeLR lethal: MLPCN primary cell-based screen for lethality selective to Ras in HRASV12 cells. BJeLR (HRASV12) viability, CellTiter-Glo ATP luminescence, 48 h; reference of the scale not given here. inhibition, % (concentration not given with the values). 300,000 tested, 0.17% active. AID 1554, 2009;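 active = replicate mean above 50%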;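 also: 50 nL library stock added to about 25 µL; numbers are from one replicate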
Autofluor counter: compound fluorescence in toxin protease inhibitor counterscreen | AID 624483 | 360,000 tested, 3.1% active | fluorescence intensity (no concentration beside the values) | compound autofluorescence counterscreen, microsphere flow cytometry; active compounds read high;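 active = at least 3 SD above the mean of all compounds, about 16000 in these data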;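 also: 100 nL of 1 mM stock went into each well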
RN4220 kill: growth inhibition of S. aureus RN4220, primary screen, OD600; 16 h; inhibition, % (concentration not given with the values); 330,000 tested, 0.33% active;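 active = z-score of -3 or lower and OD600 up to 0.18 on both plates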;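 also: plate controls were untreated cells for no effect and reference antibiotic for full effect; stock transfer was 100 nL into about 80 µL; one replicate is shown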
Sa ugtP lethal: growth inhibition of ugtP-null S. aureus, primary screen, RN4220 ugtP deletion, OD600; 16 h; some inactives read as strong as hits; growth inhibition, % (concentration not given with the values); 330,000 tested, 0.54% active; AID 1259309, 2017;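 active = z-score under -3 and OD600 up to 0.15 on both plates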;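 also: plate controls were untreated wells for no effect and antibiotic for full effect; wells of about 80 µL received 100 nL stock; the first replicate is given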
PrP 5UTR inh: inhibition of PrP 5' UTR reporter expression; inhibition, % (concentration not given with the values); 340,000 tested, 0.35% active; cell-based PrP 5' UTR mRNA reporter, plate reader;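 active = every replicate at 50% or more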;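 also: 0 = median of the neutral control wells; tested in H4 reporter cells; numbers are from one replicate; inactives centre near -14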
Mtb hypoxia inh growth: second read-out of Mtb hypoxia inh, no call of its own (marks repeat the call); growth inhibition, %; measured here: M. tuberculosis growth (absorbance);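 0% = vehicle and 100% = reference antibiotic; read after six days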
* = called active by the depositor; . = no result given.

cpd	molecule	Mtb hypoxia inh	Mtb hypoxia inh growth	BJeLR lethal	Autofluor counter
1	O=C(NC1CCC(NC(=O)C2CCCO2)CC1)C1CCCO1 (stereo unspecified)	-4	-7	12	.
2	COc1ccc(CCC(=O)Nc2sc(C(=O)N(C)C)c(C)c2C#N)cc1	13	-30	-10	.
3	Cc1ccc(C(=O)Nc2ccc3ccccc3c2)cc1	8	20	9	3904
4	O=S(=O)(/N=C(\Nc1ccc(F)cc1)C(F)(F)F)c1ccccc1	.	.	-18	9583
5	COc1cc2c(cc1OC)C(COc1ccc([N+](=O)[O-])cc1)N(C(C)=O)CC2 (stereo unspecified)	6	6	-4	3982
6	Cc1cccc(C(=O)NCC(c2cccs2)N2CCOCC2)c1 (stereo unspecified)	-3	-1	4	6006
7	Cc1cc(=O)[nH]c(SCc2cccc(Br)c2)n1	.	.	6	2170
8	CC(C)(C)OC(=O)c1c(N)n(CCCN2CCCC2=O)c2nc3ccccc3nc12	-2	12	-15	4969
9	CCC/C(O)=C1\C(=O)CC(c2ccccc2)CC1=NCCc1c(C)[nH]c2ccccc12 (stereo unspecified)	.	.	-3	5760
10	Cc1ccc(C2=NN(CC(=O)NCc3cccs3)C(=O)CC2)cc1	.	.	2	4649
11	O=C(Nc1nc(-c2ccccc2)cs1)C1COc2ccccc2O1 (stereo unspecified)	17	6	6	2781
12	CN1CCN(C(CNC(=O)c2ccc(Br)o2)c2ccc(F)cc2)CC1 (stereo unspecified)	-2	-2	8	6432

cpd	RN4220 kill	Sa ugtP lethal	PrP 5UTR inh
1	2.2	-1	.
2	1.7	5	-5
3	4.6	1	42
4	.	.	-27
5	0.6	4	-11
6	6.3	3	-9
7	-2.2	-6	-23
8	1.6	2	-13
9	.	.	10
10	.	.	-2
11	-18	-14	-15
12	3.6	7	-6

Additional structures:
cpd	molecule	Mtb hypoxia inh	Mtb hypoxia inh growth	BJeLR lethal	Autofluor counter
13	COc1ccc(S(=O)(=O)Nc2ccccn2)c(C)c1C	13	11	-35	4116
14	Cc1c(NC(=O)C(C)OC(=O)Cc2ccccc2)c(=O)n(-c2ccccc2)n1C (stereo unspecified)	4	3	7	24503*
15	CCn1c(SCC(=O)N2CCCC2)nc2ccccc2c1=O	9	7	-1	19212*
16	CCOc1ccc2nc(NS(=O)(=O)c3ccc(NC(C)=O)cc3)sc2c1	8	7	-7	4285
17	CNC(=O)COc1coc(CN2CCN(c3ccc(F)cc3)CC2)cc1=O	-4	4	4	5359
18	COc1cc(C(=S)N2CCCCC2)ccc1OCC(=O)Nc1ccccc1Cl	-3	-2	0	3825
19	CCOC(=O)c1c(/N=C/c2cccc(C)c2O)sc2c1CCN(C)C2	.	.	-5	2741
20	Cc1nc(C)n(CC(O)COc2ccc(C(=O)c3ccccc3)cc2)n1 (stereo unspecified)	5	0	6	3410
21	COc1ccc(N2CSC3=C(C#N)C(c4cccc(OC)c4OC)CC(=O)N3C2)cc1 (stereo unspecified)	3	11	-5	5462
22	NS(=O)(=O)c1cnccc1NCCc1ccccc1	0	0	7	3625
23	CCN(CC)CC(=O)N1N=C(c2cccs2)CC1c1ccco1 (stereo unspecified)	-2	6	2	2466
24	CSc1nnc(C)c(/C=C/Nc2ccc(F)cc2)n1	.	.	10	2287

cpd	RN4220 kill	Sa ugtP lethal	PrP 5UTR inh
13	7.4	-2	-18
14	5.2	3	-15
15	5.9	-2	-53
16	8.4	0	-14
17	1.5	5	0
18	9.6	2	-26
19	.	.	-25
20	4.7	8	-7
21	-9.1	0	6
22	3.6	9	.
23	1.3	0	-1
24	-0.3	-11	7

New compounds follow
cpd	molecule	Mtb hypoxia inh	Mtb hypoxia inh growth	BJeLR lethal	Autofluor counter
25	CSc1ccccc1C(=O)N(C)C(c1ccccc1)c1ccccc1	1	16	14	6021
26	Clc1ccc(-c2[nH]ncc2N=Nc2ccccc2)cc1	.	.	-3	3655
27	COc1ccc(-c2csc(N(CCCN3CCOCC3)C(=O)c3ccco3)n2)cc1	-7	-12	-4	10094
28	CCCCn1c(SCC(=O)c2ccccc2)nc2c1c(=O)[nH]c(=O)n2C	.	.	-10	5327
29	CCC(C)N(C(=O)COc1ccc(NC(C)=O)cc1)C1CCS(=O)(=O)C1 (stereo unspecified)	0	19	0	4001
30	O=C1N(CC(=O)N2CCc3ccccc32)CCN1Cc1ccccc1Cl	.	.	9	5622
31	Cc1ccc(NC(=O)CN2CCN(S(=O)(=O)c3cccs3)CC2)cc1S(=O)(=O)N(C)C	-5	7	-9	4607
32	Cc1ccc(NC(=O)C2CC(=O)N/C(=N/N=C/c3ccco3)S2)cc1C (stereo unspecified)	.	.	16	10199
33	CN(C(=O)c1ccccc1)c1ccc(OCC(=O)NC2CCS(=O)(=O)C2)cc1 (stereo unspecified)	18	3	7	6413
34	Cc1ccccc1OCC(=O)OCC(=O)c1ccc(-c2ccccc2)cc1	2	4	-1	2133
35	Cc1csc(OCC(=O)Nc2ccc(C)c(C)c2)n1	.	.	0	4963
36	Cc1cc(C)nc(SCC(=O)c2ccc(F)c(C)c2)n1	19	17	-4	4256

cpd	RN4220 kill	Sa ugtP lethal	PrP 5UTR inh
25	2.2	13	6
26	.	.	-23
27	1.4	2	-8
28	0.9	1	-9
29	-3.1	11	-37
30	7.1	-1	-17
31	11	5	-13
32	.	.	4
33	3.4	5	-18
34	8.8	2	-18
35	0.2	5	-28
36	11	6	-29

Along the list, from the results shown.
Nos. 27–36 in Mtb hypoxia inh growth read -12, ., 19, ., 7, ., 3, 4, ., 17
Nos. 27–36 in PrP 5UTR inh read -8, -9, -37, -17, -13, 4, -18, -18, -28, -29

(list continues)
cpd	molecule	Mtb hypoxia inh	Mtb hypoxia inh growth	BJeLR lethal	Autofluor counter
37	CCc1nn(C(C)C(=O)NC(C)CCc2ccco2)c(=O)c2cc3occc3n12 (stereo unspecified)	7	6	2	3025
38	O=[N+]([O-])c1ccc(/C=N/Nc2nc(N3CCCCCC3)nc(N3CCCCCC3)n2)o1	.	.	-19	12324
39	CCc1ccc(/C=N/NC(=O)C(=O)NCCCN2CCOCC2)cc1	.	.	-6	9354
40	COc1ccc(C)cc1NC(=O)CN1CCCC1c1ccc2c(c1)OCCCO2 (stereo unspecified)	7	9	.	3377
41	CC(C)Cn1c(=O)[nH]c(=O)c2c(C(F)(F)F)cc(-c3ccccc3)nc21	1	22	4	4299
42	CCOC(=O)N1CCN(C(=O)CCCCn2c(=S)[nH]c3ccsc3c2=O)CC1	-16	6	-8	4140
43	CC1=NN=C(c2ccc(N)cc2)c2cc3c(cc2C1)OCO3	-2	4	.	5202
44	C=CCOc1ccc2cccc(C=NNC(=O)c3cc4cc([N+](=O)[O-])ccc4s3)c2c1	-1	-2	.	.
45	CCOC(=O)CN1C(=O)C(=O)N(Cc2cccc(C)c2)C1=O	3	0	9	3724
46	CN(C)c1ccc(C(CNC(=O)c2ccccc2Br)c2c[nH]c3ccccc23)cc1 (stereo unspecified)	-4	8	2	2560
47	Cc1ccc(OCCN2CCOCC2)cc1C	4	-2	6	.
48	CC(=O)Nc1cc2ccc(OC(C)=O)cc2oc1=O	.	.	-5	6084

cpd	RN4220 kill	Sa ugtP lethal	PrP 5UTR inh
37	2.0	-12	-15
38	.	.	-8
39	.	.	-9
40	3.3	14	-1
41	2.2	20	-19
42	0.9	-6	-37
43	1.4	-4	-2
44	1.2	5	.
45	1.8	3	-21
46	0.3	-5	5
47	1.3	6	-10
48	0.5	-2	-20

Looked up by compound from the entries so far (3):
cpd	molecule	Mtb hypoxia inh	Mtb hypoxia inh growth	BJeLR lethal	Autofluor counter
41	CC(C)Cn1c(=O)[nH]c(=O)c2c(C(F)(F)F)cc(-c3ccccc3)nc21	1	22	4	4299
47	Cc1ccc(OCCN2CCOCC2)cc1C	4	-2	6	.
45	CCOC(=O)CN1C(=O)C(=O)N(Cc2cccc(C)c2)C1=O	3	0	9	3724

cpd	RN4220 kill	Sa ugtP lethal	PrP 5UTR inh
41	2.2	20	-19
47	1.3	6	-10
45	1.8	3	-21

New compounds follow:
cpd	molecule	Mtb hypoxia inh	Mtb hypoxia inh growth	BJeLR lethal	Autofluor counter
49	O=C(C1CCN(c2nc3ccc(Br)cc3s2)CC1)N1CCC2(CC1)OCCO2	3	5	12	3176
50	COC(=O)C1=C(C)N(Cc2ccccc2)C(=O)N[C@H]1c1ccco1	.	.	-3	3988
51	CN1CCN(C(=O)c2ccc(C(C)(C)C)cc2)CC1	14	4	-1	10871
52	CCOC(=O)c1ccc(NC(=O)Cn2nnc(-c3ccc(F)cc3)n2)cc1	-4	3	-4	23033*
53	CCCSc1nc(O)c(C2OC(=O)c3c2ccc(OC)c3OC)c(=O)n1-c1ccccc1 (stereo unspecified)	13	14	-13	3116
54	CCCCC(=O)NC(=S)NNC(=O)c1ccc(OC)cc1	-1	5	8	4233
55	O=C(O)CNS(=O)(=O)c1ccc(C2CCCCC2)cc1	8	4	4	4736
56	Cc1ccccc1Cn1cnc2c(cnn2C(C)(C)C)c1=O	3	7	-4	2491
57	Cc1ccc[n+](CC(=O)/C=C2\N(C)c3ccccc3C2(C)C)c1	4	-3	10	2802
58	COc1ccc(-c2nn(-c3ccccc3)cc2N)cc1	-3	-2	-3	4634
59	CC(C)Cn1c(SCC(=O)c2ccc(Cl)s2)nnc1-c1ccco1	-1	8	-3	22317*
60	Cc1ccc(NC(=O)Cc2c(O)c3ccccc3[nH]c2=O)c(C)c1	11	7	3	5130

cpd	RN4220 kill	Sa ugtP lethal	PrP 5UTR inh
49	4.4	-6	-55
50	.	.	-22
51	4.9	-2	-15
52	-1.3	-14	-2
53	-9.9	-10	-17
54	34	13	1
55	4.4	0	-22
56	12	2	-5
57	4.0	4	-23
58	1.5	-2	-95
59	26	0	-9
60	1.7	1	-24

More results follow.
cpd	molecule	Mtb hypoxia inh	Mtb hypoxia inh growth	BJeLR lethal	Autofluor counter
61	O=C(NC1CCCCCC1)C(Cc1ccccc1)n1cccc1 (stereo unspecified)	14	4	12	4379
62	Cc1nc(NC(=O)c2ccccc2)sc1Cc1ccc2c(c1)OCO2	.	.	-3	2632
63	COc1cc(C(=O)N2CCC(C(=O)Nc3cccc(C(C)=O)c3)CC2)cc(OC)c1OC	4	9	4	3102
64	Cc1c(C(=O)N2CCc3ccccc32)oc2c1C(=O)CC(C)(C)C2	5	5	.	23325*
65	O=C(NN=C1CCc2ccccc21)c1ccc(O)cc1	5	-2	.	.
66	COc1ccc(CN(C)C(=O)Cn2ccc(N)nc2=O)cc1OC	5	7	.	3800
67	Cc1cc(S(=O)(=O)N2CCOCC2)ccc1OCC(=O)Nc1ccccc1C(F)(F)F	8	4	5	3614
68	Cn1c(-c2ccccc2)c(/C=N/NC(=O)c2ccc(O)cc2)c2ccccc21	.	.	17	4311
69	CCC(=O)NC1(Cc2ccc(O)cc2)CCCCC1	0	-3	-5	3885
70	CCOc1cc(C(=O)Nn2cnnc2)cc(OCC)c1OCC	-9	8	-12	4862
71	COc1cc2c(C(F)(F)F)c(-c3ccc(C#N)cc3)oc(=O)c2cc1OC	9	5	.	4020
72	CN1CCN(S(=O)(=O)c2ccccc2)C(c2ccccc2)C1 (stereo unspecified)	7	5	.	3596

cpd	RN4220 kill	Sa ugtP lethal	PrP 5UTR inh
61	2.6	6	-5
62	-6.0	-13	-54
63	1.5	5	11
64	2.5	-1	-65
65	7.3	4	.
66	4.5	0	-14
67	-0.1	14	-17
68	.	.	-46
69	6.3	5	-60
70	-2.4	-8	-5
71	3.1	0	-22
72	7.4	8	-6

Later entries.
cpd	molecule	Mtb hypoxia inh	Mtb hypoxia inh growth	BJeLR lethal	Autofluor counter
73	Cc1cccc(N2C(=N)SCC2=O)c1C	6	6	-6	2459
74	COc1ccc(Cn2ccnc2)cc1[N+](=O)[O-]	-4	-12	.	2583
75	CC(=O)c1nn(-c2cccc(Cl)c2)cc1C(=O)c1ccco1	.	.	-1	4274
76	CCOC(=O)C1(CCc2ccccc2)CCN(Cc2ccco2)CC1	-7	-6	5	2077
77	CCCCNc1nnc(SCC(=O)N2CCN(S(=O)(=O)c3ccc4ccccc4c3)CC2)s1	-7	3	-1	4220
78	O=C(CN1C(=O)CCC1=O)Nc1nc(-c2ccc(Oc3ccccc3)cc2)cs1	14	7	-11	2781

cpd	RN4220 kill	Sa ugtP lethal	PrP 5UTR inh
73	8.6	3	-18
74	-1.5	-2	-21
75	11	-5	-13
76	9.7	-4	-10
77	1.6	-10	-44
78	2.5	30	-14
